Source: PubChem BioAssay
gsp antag: antagonists of gsp mutant (McCune-Albright syndrome); AID 624288; gsp-mutant cells, cAMP HTRF, 30 min; control for the full effect not named in the record; Potency, µM (series often up to 76.9 µM), inactives show at the highest dose activity change, negative = inhibition, actives largely listed as inhibitors; 340,000 tested, 0.4% active; active = falling curve of any shape with a large fitted effect; inconclusive = falling curve, mostly with a smaller effect; inactive = flat or rising curve; cell line not stated here;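 further: intracellular cAMP measured with PDE inhibitor Ro 20-1724 present during compound exposure; potency means the concentration at half of the fitted maximal effect; on the % scale 0 is the no-effect control and ±100 the full control effect; nearly all actives have a fitted effect of over 65% in size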
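Cells, 2000/well, grown 16–24 h in DMEM 10% FBS with 0.5 mg/ml G418, then compounds plus […] (300 uM addition stock), 30 min at 37C. cAMP read by HTRF (cAMP-d2 and anti-cAMP antibody-K in lysis buffer) after 30 min RT.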
ClpP mod: qHTS Assay for Activators of ClpP | ATP-dependent Clp protease proteolytic subunit (Bacillus subtilis (strain 168)), P80244 | purified B. subtilis ClpP, FRET peptide cleavage, 20 min | Potency, µM (titrated, usually from 57.5 µM), inactives show top-dose activity change, negative = active | 340,000 tested, 1.9% active; active = well fitted falling curve with a large enough effect; inconclusive = small, poorly fitted or top-dose-only effect; inactive = no such curve, though single readings can be large or run the other way; further: potency means the concentration at half of the fitted maximal effect; the source files actives as falling curves though it sought activators and does not explain the sign; nearly all actives have a fitted effect of over 65% in size; many hits overshoot -100%
Target sequence (P80244 whole entry, looked up): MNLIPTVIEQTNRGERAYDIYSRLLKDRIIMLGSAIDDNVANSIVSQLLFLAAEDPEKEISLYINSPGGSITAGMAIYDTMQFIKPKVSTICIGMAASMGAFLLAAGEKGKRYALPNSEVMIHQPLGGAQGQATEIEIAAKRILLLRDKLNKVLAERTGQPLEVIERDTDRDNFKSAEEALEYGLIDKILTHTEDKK
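ClpP 10 microg/mL final, pH 8 Tris/KCl buffer with BSA, glycerol, Tween-20; compound pinned in; FRET-FV substrate; RT 20 min; Ex320/Em430; ΔFRET vs ADEP 5.8 microM, DMSO, no enzyme.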
gsp agonist: gsp mutant agonism. gsp mutant cells, cAMP HTRF, 30 min; control for the full effect not named in the record. Potency, µM (series often up to 76.9 µM), for inactives: at the highest dose activation (cAMP increase), hits mostly activators. 340,000 tested, 0.13% active. AID 624287; active = well fitted activation curve with a large enough effect; inconclusive = small, poorly fitted or top-dose-only effect, or another doubt; inactive = no such curve, though single readings can be large or run the other way; cell line not stated here;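 further: phosphodiesterase inhibitor Ro 20-1724 added with compounds to block cAMP breakdown; potency means the concentration at half of the fitted maximal effect; nearly all actives have a fitted effect of over 60% in size; about a fifth of the inactives were tested at one dose only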
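Cells in DMEM/10% FBS with G418 were pretreated with compounds in DMSO plus […] (300 uM stock) for 30 min at 37C. cAMP was measured by HTRF (cAMP-d2 plus anti-cAMP antibody-K) after 30 min at room temperature.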
Sfp inh: inhibitors of Bacillus subtilis Sfp phosphopantetheinyl transferase; Q9F4F7; Biochemical Sfp PPTase activity, qHTS; Potency, µM, for inactives: max response, negative = inhibition, actives largely listed as inhibitors; 310,000 tested, 3.5% active; AID 1490; active means well fitted inhibition curve with a large enough effect; inconclusive means small, poorly fitted or top-dose-only effect, or another doubt; inactive means no such curve, though single readings can be large or run the other way;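 further: the enzyme is Sfp with the accession as filed and its product quenches rhodamine fluorescence; potency means the concentration at half of the fitted maximal effect; 0% = enzyme reaction without inhibitor and -100% = no enzyme wells; top concentration of the series not given in the record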
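Fluorescence-quenching assay with 15 nM Sfp, 5 uM rhodamine-CoA and 12.5 uM BHQ-2-labelled ybbR peptide in pH 7.6 Hepes/MgCl2 buffer. Enzyme was pre-incubated with compound for 15 min at room temperature. Rate was taken from the 30-min fluorescence change (525/598 nm).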
Menin-MLL FL inh: displaces fluorescein MLL peptide from human menin; FP activity change, % at 61.4 µM; Fluorescence polarization, fluorescein-MLL peptide displacement from menin; 290,000 tested, under 10 active; inconclusive = falling polarisation curve, or a change in total fluorescence; inactive = total fluorescence flat and polarisation flat or rising; no compound was filed as active; the % refers to the polarisation; negative = inhibition;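 further: % of control where 0% means no effect; inhibitors lower the polarisation; unlabelled MLL peptide was the positive control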
CtBP-E1A inh: inhibitors of CtBP/E1A interaction | AlphaScreen GST-E1A/His-CtBP binding, 1536-well; active compounds read low; control for the full effect not named in the record | activity change, % (test concentration not listed) | 340,000 tested, 0.49% active; in the data active means activity change below about -65%; inconclusive means about -30% to -65%; inactive means above about -30%; further: on the % scale 0 is the no-effect control and ±100 the full control effect
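AlphaScreen with 125 nM GST-E1A and 125 nM His-CtBP (5X stocks) in Tris pH 8.0, 300 mM NaCl, BSA, Tween 20, TCEP. Compounds preincubated 2 h at 37 deg C, then glutathione donor/nickel acceptor beads added for 1 h at 37 deg C in dark.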
TRPV1 PAM: potentiators of human vanilloid receptor 1 (TRPV1). TRPV1-expressing cells, Fluo-8 calcium influx, capsaicin EC20 potentiation; host cell line not named in the record; control for the full effect not named in the record. potentiation, % at 8.33 µM. 320,000 tested, 0.02% active; active means potentiation above 80%; inconclusive means 30% to 80%; inactive means below 30%; further: 0% is about no effect
Target sequence (Q8NER1 whole entry, looked up): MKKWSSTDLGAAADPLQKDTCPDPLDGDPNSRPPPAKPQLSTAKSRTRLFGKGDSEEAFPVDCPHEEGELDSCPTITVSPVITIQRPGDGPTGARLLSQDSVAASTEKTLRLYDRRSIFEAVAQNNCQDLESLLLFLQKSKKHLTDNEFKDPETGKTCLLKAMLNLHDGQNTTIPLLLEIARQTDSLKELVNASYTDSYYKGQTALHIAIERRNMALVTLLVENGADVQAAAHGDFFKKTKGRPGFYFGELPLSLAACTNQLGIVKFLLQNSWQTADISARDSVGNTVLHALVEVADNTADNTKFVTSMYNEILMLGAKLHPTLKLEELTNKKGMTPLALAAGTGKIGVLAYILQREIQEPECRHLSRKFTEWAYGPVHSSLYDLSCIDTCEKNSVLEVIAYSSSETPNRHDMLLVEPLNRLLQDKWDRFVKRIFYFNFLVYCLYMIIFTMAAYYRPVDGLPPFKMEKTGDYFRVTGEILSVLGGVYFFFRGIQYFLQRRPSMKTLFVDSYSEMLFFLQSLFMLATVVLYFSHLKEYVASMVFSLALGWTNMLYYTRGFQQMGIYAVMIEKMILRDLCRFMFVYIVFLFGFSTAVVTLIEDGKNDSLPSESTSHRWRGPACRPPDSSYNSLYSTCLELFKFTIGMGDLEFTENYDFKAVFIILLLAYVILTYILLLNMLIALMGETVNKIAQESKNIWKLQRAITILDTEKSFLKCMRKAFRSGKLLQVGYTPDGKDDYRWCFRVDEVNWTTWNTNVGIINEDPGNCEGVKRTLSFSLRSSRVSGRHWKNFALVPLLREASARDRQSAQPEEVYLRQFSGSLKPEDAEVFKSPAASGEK
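TRPV1-expressing cells were cultured overnight at 35.5C and loaded with Fluo-8 calcium dye for 40 to 90 min at room temperature. After a 10 s baseline, compound was added and calcium influx was read kinetically for 3 min (ex 480/em 520 nm).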
The depositor's hits bear a star; ? = inconclusive; / = not tested or not shown; & = joins results of further samples; [ ] = remark or other dose.

Values run as follows: gsp antag, ClpP mod, gsp agonist, Sfp inh, Menin-MLL FL inh, CtBP-E1A inh, TRPV1 PAM
(1) CCOC(=O)C1=C(COC(=O)c2cccc(NC(C)=O)c2)NC(=O)NC1C (configuration not stated)
 : 11%, -3.6%, ?, /, /, -1, 20
(2) CCN(CC)S(=O)(=O)c1ccc(N(C)C)c(NC(=O)C2CCCC2)c1
 : 6%, -1.3%, -3%, 26%, 4.0, -22, -27
(3) CC1=Nc2cc(C(=O)NCCCN3CCN(C)CC3)ccc2Sc2ccc(C)cc21
 : 17%, 1.3%, -8%, 10%, -3.9, /, -1
(4) COc1ccc(NC(=O)C2C3C=CC(C3)C2C(=O)O)cc1 (configuration not stated)
 : 14%, 0.1%, 22%, 14%, 0.7, 1, -6
(5) CSc1ncc(C(=O)Nc2cccc(C)c2C)c(C)n1
 : 4%, -7.0%, 30%, 14%, -8.4, -10, 21
(6) CC1=CC(C)(C)Nc2ccc(Cc3ccc4c(c3)C(C)=CC(C)(C)N4)cc21
 : -15%, 3.5%, 1%, -3%, 5.0, /, 27
(7) Cc1ccc(C(=O)N2CCN(c3ccc(NC(=O)Cc4ccccc4)cc3)CC2)cc1
 : -24%, -0.9%, -59%[inhibitor], 4%, /, -5, 0
(8) NNC(=O)c1ccc(Oc2cc(Cl)cc(Cl)c2)o1
 : 0%, 2.3%, 18%, -6%, 6.2, /, -23
(9) COc1cc(S(=O)(=O)N2CCC(C(N)=O)CC2)c(C)cc1C
 : 5%, -5.3%, 1%, 12%, -1.6, -14, 1
(10) COc1ccccc1CC(=O)Nc1cccc(C(=O)Nc2nccs2)c1
 : -10%, 7.6%, -4%, 0%, 4.1, 0, -4
(11) Cc1ccn2c(C(=O)NN=C3CCCCCCC3)c(C)nc2c1
 : 8%, -2.0%, 4%[15.4 µM], 8%, -1.4, 4, 4
(12) COCCOC(=O)C1=C(C)OC(N)=C(C#N)C1c1ccc2c(c1)OCO2 (configuration not stated)
 : 3%, -1.5%, -23%, 3%, 10, 1, 7
(13) Cc1ccc(NC(=O)CCN2C(=O)NC3(CCCC3)C2=O)cc1
 : 3%, /, 21%[15.4 µM], /, /, 2, 11
(14) CCN(CC)S(=O)(=O)c1ccc(N2CCOCC2)c(NC(=O)c2cc3ccccc3o2)c1
 : /, 1.8%, ?, /, /, -3, /
(15) CSc1ccc(C2c3[nH]c4ccccc4c3CCN2C(=O)c2ccnn2C)cc1 (configuration not stated)
 : -7%, /, 8%, -8%, 0.4, ?, 1
(16) Cc1ccccc1Cn1nnc(-c2ccc3c(c2)OCO3)n1
 : -9%, -1.5%, 22%, -20%, 2.6, 25, -1
(17) Cc1ccc2c(c1)C(O)(c1c(C)[nH]c3ccccc13)C(=O)N2 (configuration not stated)
 : 9%, 0.0%, 14%, 4%, 0.2, -3, -7
(18) O=C(CN1C(=O)CSC1=O)Nc1ccc(F)c(F)c1F
 : 13%, 1.3%, -20%, 15%, 0.4, 6, 3
(19) CCCC1C(=O)Nc2ccccc2N1C(=O)c1ccc(C(C)(C)C)cc1 (configuration not stated)
 : -15%, /, -20%, -4%, -0.5, -1, -9
(20) CCC[C@@H]1C[C@@]1(CCC)[C@@H](NP(=O)(c1ccccc1)c1ccccc1)c1ccc(C(=O)OC)cc1
 : -18%, -3.5%, -45%[inhibitor], -11%&4%, 8.4&-1.7, /, -4
(21) CC1CCCC(C)N1CCCNC(=O)C(=O)Nc1ccc2nc3n(c(=O)c2c1)CCCCC3 (configuration not stated)
 : 17%, -0.6%, 27%, 17%, /, 5, -10
(22) CC(=O)c1cccc(NC(=S)NC(=O)Cc2ccccc2)c1
 : 1%, /, -8%[15.4 µM], 15%, -3.1, 5, 30
(23) COc1cc(O)c2c(=O)c3c(O)c(O)ccc3oc2c1OC
 : -7%, -7.2%, /, /, /, -25, /
(24) O=C1N/C(=C/c2ccsc2)C(=O)N1c1ccccc1
 : 4%, -1.6%, 5%, -5%, 0.6, 13, -1
(25) Nc1ccn(C2CCCO2)c(=O)n1 (configuration not stated)
 : 6%, -2.1%, 24%, /, /, -18, /
(26) CCOc1ccc(N2C(=O)c3cccnc3C2Nc2ccc(Cl)cc2)cc1 (configuration not stated)
 : -1%, 0.4%, 10%, 10%, 4.1, 3, 3
(27) CN(Cc1ccccc1)C(=O)COC(=O)C1CCN(S(=O)(=O)c2ccc3c(c2)OCCO3)CC1
 : -26%, 1.8%, ?, /, /, 3, 4
(28) Cc1nn2c(N3CCN(C)CC3)c3c(nc2c1-c1ccccc1)CCCC3
 : -7%, 3.5%, 2%, -9%, 2.9, 0, 6
(29) O=C(Nc1ccc(F)cc1)c1cccc(N2C(=O)c3ccccc3C2=O)c1
 : 7%, /, -27%, -12%, /, 3, -11
(30) CN(CCC#N)C(=O)COC(=O)C1c2ccccc2Oc2ccccc21
 : -5%, /, -2%, 13%, -1.5, 7, 1
(31) COCCCNC(=O)Cn1cnc2sc(C)c(S(=O)(=O)N3CCN(c4ncccn4)CC3)c2c1=O
 : 9%, /, -15%, 12%, 0.4, 3, 3
(32) Cc1ccccc1NC(=S)N(Cc1cccs1)C1CCCCC1
 : -7%, /, 12%[15.4 µM], 6%, 2.3, -10, -2
(33) CCN(c1cccc(C)c1)S(=O)(=O)c1ccc2c(c1)oc(=O)n2C
 : -6%, -0.9%, 7%[15.4 µM], 5%, 6.2, 3, 7
(34) COc1cc(OC)cc(-c2nnc(SCc3cccc(C(=O)O)c3)o2)c1
 : -21%, -2.2%, -8%, 11%, 1.3, -12, -1
(35) O=c1c(C(c2ccc(Cl)cc2)c2c(O)nc3n(c2=O)CCS3)c(O)nc2n1CCS2
 : 5%, -2.7%, 0%, -3%, 0.8, /, -5
(36) CCn1cc(C(=O)N2CCN(c3ccc([N+](=O)[O-])cc3)CC2)c(=O)c2ccc(C)nc21
 : -16%, -0.2%, 45%, 13%, 1.7, -1, 17
(37) CCS(=O)(=O)Nc1cccc(C(=O)CC2(O)C(=O)Nc3ccccc32)c1 (configuration not stated)
 : -8%, -18%, -11%, 24%, 0.2, 8, -6
(38) CC(C)Oc1ccc(C(CC(=O)O)NC(=O)c2cccs2)cc1 (configuration not stated)
 : 9%, 0.0%, -57%[inhibitor], 22%, 2.1, 4, -3
(39) CCOc1ccc2nc(N3CCCC(C(=O)N4CCN(CC)CC4)C3)sc2c1 (configuration not stated)
 : -7%, 2.6%, ?, ?, -3.2, -4, /
(40) CCC(C)NC(=O)Cn1nc(C(F)(F)F)c2c1CCCC2 (configuration not stated)
 : 1%, -2.3%, -22%, 3%, 2.4, 0, ?
(41) NC(=O)Cc1ccc(Nc2nnc(-c3ccc(O)cc3)c3ccccc23)cc1
 : 10%, -1.3%, ?, ?, 4.0, -14, 1
(42) Cc1ccc(-n2ncc3c(NNC(=O)Cc4ccccc4)ncnc32)cc1
 : 0%, -22%, -6%, -13%, 4.0, 3, 5
(43) O=C1CC(c2cccs2)c2cc3c(cc2N1)OCO3 (configuration not stated)
 : 11%, 0.1%, 0%, -12%, -0.5, -7, /
(44) Cc1cccc(C)c1NC(=O)CCS(=O)(=O)c1cccc2nsnc12
 : 10%, -2.1%, 8%, -26%, 3.1, -1, 12
(45) Cc1ccc(CN2CCN(Cc3cccc(-n4cccn4)c3)CC2CCO)cc1 (configuration not stated)
 : 1%, /, -7%[15.4 µM], 5%, -5.4, 0, -2
(46) COc1ccc(S(=O)(=O)N2CCCOC2CNC(=O)C(=O)NCCc2ccco2)cc1 (configuration not stated)
 : 10%, 1.0%, -11%, -12%, -4.3, -3, 4
(47) N/C(=N\OC(=O)C1CCCCC1)c1ccc(Br)cc1
 : -12%, /, 26%[15.4 µM], 4%, -0.6, 18, -3
(48) O=C(COC(=O)CNC(=O)c1ccc(Cl)cc1)Nc1ccc(Cl)cc1C(F)(F)F
 : -1%, -0.7%, 0%, 28%, 6.5, 6, -5
(49) O=c1[nH]c(Nc2nc3ccccc3o2)nc2c1CCCC2
 : -33%, -1.0%, 26%, 14%, -7.3, 48, -7
(50) COC(=O)c1ccccc1NC(=O)Cn1ccnc1
 : 2%, -16%, -35%[inhibitor], -6%, 4.4, -2, 2
(51) CCOCc1nc(N)nc(N)c1-c1cccc(Cl)c1
 : /, -1.5%, 19%, /, /, 7, /
(52) CCOC(=O)N1CCN(C(=O)c2ccc3nc4ccsc4c(=O)n3c2)CC1
 : 5%, 4.1%, -78%[inhibitor], 20%, 1.6, -3, -12
(53) O=C(Nc1cc2ccccc2oc1=O)C1CCCCC1
 : -1%, -15%, -21%, 27%, -1.5, 10, 12
(54) c1ccc2cc(Cn3ccnc3)ccc2c1
 : 3%, 1.1%, ?, 8%, 0.5, /, 5
(55) CCOc1ccc(C(=O)OCC(=O)Nc2ccc3c(c2)OCCO3)cc1OC
 : 9%, -1.2%, 10%, /, /, 7, -5
(56) C/C(=N/NS(=O)(=O)c1ccc(Cl)cc1)c1cccc(NC(=O)c2ccncc2)c1
 : -23%, -1.1%, -4%[15.4 µM], 12%, -9.1, 7, -3
(57) COCCCNCCOc1ccccc1-c1ccccc1
 : 0%, -1.3%, 25%[15.4 µM], -11%, 2.8, 7, -4
(58) Fc1ccccc1Nc1nc(NCc2ccco2)nc(N2CCOCC2)n1
 : -26%, -1.4%, 29%, 11%, 0.0, -9, -8
(59) CC(C)N(C(=S)NC1CCCCC1)c1ccccc1
 : /, /, /, -10%, 1.8, /, -12
(60) O=C(c1ccc(Cn2c(=S)[nH]c3cc4c(cc3c2=O)OCO4)cc1)N1CCN(c2ccccc2)CC1
 : -20%, /, -1%[15.4 µM], 11%, 1.7, 0, 0
(61) Cc1ccc2cc(CCNC(=O)CCCc3ccccc3)c(=O)[nH]c2c1C
 : 7%, /, 24%, 13%, /, 2, 17
